# AID504770: E. coli YBA685 growth inhibition, screen for V. cholerae RctB inhibitors | 130,000 tested, 0.27% active | AID 504770 | z-score (concentration not given with the values) | E. coli YBA685 rctB-dependent plasmid, OD600 growth, 3 h; stronger effect = lower value;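 active = z-score under -2 on both plates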;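 also: wells of about 30 µL received 100 nL stock; score is relative to mean and SD of the test wells; the first replicate is given; strong numbers were not always called active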
# Ba CapD inh: blocks the Bacillus anthracis CapD enzyme; 140,000 tested, 0.23% active; AID 492967; z-score (concentration not given with the values); purified CapD enzyme, fluorescence intensity read-out; stronger effect = lower value; some hits fall short of the stated cut;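 active = z-score under -4 in either of two replicates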;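 also: stock transfer was 100 nL into about 40 µL; score is relative to mean and spread of the plate; one replicate is shown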
# * hit, by the source's call; nt = no result given.
SMILES,AID504770,Ba CapD inh
Cc1ccc(C(=O)OCC(=O)N2C(C)CCCC2C)s1 (configuration not stated),2.2,nt
CCCCNC(=S)NN1C(=O)NC(C)(c2cccc(OC)c2)C1=O (configuration not stated),-0.8,nt
O=C(O)CCc1nc(-c2ccccc2)c(-c2ccccc2)o1,1.6,-0.14
CC(c1ccccc1)n1c(Cn2ncc3ccccc3c2=O)n[nH]c1=S (configuration not stated),-0.5,0.055
Nc1nn(-c2ccccc2Cl)cc1-c1nn[nH]n1,nt,0.06
CN1C(=O)/C(=C\c2ccc(C(=O)N3CCOCC3)cc2)SC1=S,-0.15,nt
CCCC(O)C(C)(C)CO (configuration not stated),0.8,nt
COc1ccc(N2CCN(CCNC(=O)c3nnc(Cc4ccccc4Cl)o3)CC2)cc1,0,-0.17
Cc1ccc2c(c1)-c1nc3ccccc3cc1C2=O,nt,6
CSc1c(-c2cccs2)c(N)nn1S(=O)(=O)c1ccccc1,-1.1,-0.63
N=c1n(CCO)c2ccccc2n1CCN1CCCCC1,0.15,-0.17
CNc1ccccc1C(=O)OCc1ccc(C(=O)OC)cc1,0.9,110
Cc1ccc(P(=Nc2cc(Cl)ccc2Cl)(N2CCOCC2)N2CCOCC2)o1,-0.05,nt
Cn1c(=O)c2c(ncn2Cc2ccc(Br)cc2)n(C)c1=O,nt,-0.7
COc1ccc(-c2cc(C(F)(F)F)nc(SCCC(=O)NC(C)C)n2)cc1,0.4,-1.8
COc1cccc(NC(=O)C(Sc2nnc3n2CCCCC3)c2ccccc2)c1 (configuration not stated),2.2,nt
COc1ccccc1CC(=O)NCc1nn(-c2ccccc2)nc1C,-0.05,0.2
O=C(Nc1ccccc1Cl)Nc1nc(-c2ccco2)cn1/N=C/c1ccccc1,nt,-0.27
CCOC(=O)c1nc(COc2ccccc2Cl)[nH]c(=O)c1C,-0.15,0.48
CCOc1ccc(S(=O)(=O)Nc2cc(Cl)c(O)c3ccccc23)cc1,0.2,-0.99
Cc1ccc(CN(C)CC(O)COC(c2ccccc2)c2ccccc2C)o1 (configuration not stated),0.3,nt
CC1(C)CC(=O)C2=C(C1)c1c(ccc3ccccc13)NC2c1cc([N+](=O)[O-])ccc1O (configuration not stated),nt,1.6
CCN(CCOC(=O)NNC(=O)c1sc(-c2ccccc2)nc1C)c1ccc(N=Nc2ccc([N+](=O)[O-])cc2)cc1,nt,-0.53
CSc1nc(N)nc(COc2ccccc2Cl)n1,-0.3,-0.45
CCOC(=O)c1nnc(Cc2ccccc2OC)o1,-1,-0.17
Cc1ccc(C)c(NC(=O)CSc2ncccn2)c1,-1.1,-0.11
COc1ccc(C(C)(C)C)cc1S(=O)(=O)N1CCN(c2ccccc2)CC1,2.4,-0.51
O=C(O)CCOc1cccc(Br)c1,-0.55,0.68
CCN1CCN(C(=O)/C=C/c2cn(-c3ccccc3)nc2-c2cccnc2)CC1,-0.75,nt
CCOC(=O)c1c2n(c3cc(Br)c(OC)cc13)CCN(c1cccc(Cl)c1)C2,nt,0.065
O=C(COc1ccc2ccccc2c1)NC1CCC(O)CC1 (configuration not stated),-1.1,nt
CC(C)n1cnnc1SCC(=O)NC(=O)c1cccn1C,-0.85,nt
COc1ccccc1OCC(=O)Nc1nc(-c2ccc(S(=O)(=O)N3CCCC3)cc2)cs1,0.1,nt
O=C(COC(=O)c1cccnc1Cl)Nc1cccc(Br)c1,-0.75,0.14
CSCCC(C(=O)O)N1C(=O)c2ccccc2C1=O (configuration not stated),0.25,nt
Cc1ccc(-c2nn(-c3ccccc3)cc2C(=O)Nc2ccccc2C)o1,-0.55,nt
Cc1nn(-c2ccccc2)c(C)c1/C=N/N=C1\C(=O)Nc2ccccc21,0.15,nt
Clc1ccc(CN2CCNCC2)cc1,-1,43
CC(C)(C)c1csc(=S)n1CCc1ccccn1,-1.2,-0.31
COc1cccc(CSc2nnc(Cc3cccs3)n2C2CCCCC2)c1,-0.3,nt

# Some values from the entries so far:
# AID504770, Clc1ccc(CN2CCNCC2)cc1 : -1
# AID504770, CCN1CCN(C(=O)/C=C/c2cn(-c3ccccc3)nc2-c2cccnc2)CC1 : -0.75

# The main list resumes, starting 5 compounds before the break.
SMILES,AID504770,Ba CapD inh
Cc1ccc(-c2nn(-c3ccccc3)cc2C(=O)Nc2ccccc2C)o1,-0.55,nt
Cc1nn(-c2ccccc2)c(C)c1/C=N/N=C1\C(=O)Nc2ccccc21,0.15,nt
Clc1ccc(CN2CCNCC2)cc1,-1,43
CC(C)(C)c1csc(=S)n1CCc1ccccn1,-1.2,-0.31
COc1cccc(CSc2nnc(Cc3cccs3)n2C2CCCCC2)c1,-0.3,nt
COc1ccccc1Oc1ccc(C(F)(F)F)cc1NC(=O)c1c(O)c2ccccc2[nH]c1=O,nt,1.4
COc1ccc(S(=O)(=O)Nc2cccc3cc(C(=O)NCc4ccccc4OC)[nH]c23)cc1,nt,-0.27
O=C1CC(c2ccccc2)Cc2c1cnn2-c1nc2ccccc2[nH]1 (configuration not stated),-0.4,nt
C1CCC2(CC1)C1=C(CCCC1)Nc1nnnn12,0.65,nt
CCc1ccc(C2N(c3ccc(C)cc3)CCN2c2ccc(C)cc2)cc1,nt,-0.33
CN1C(=O)Cc2cc(S(=O)(=O)CCC(=O)N3CCN(Cc4ccc5c(c4)OCO5)CC3)ccc21,2.5,-2.2
FC(F)(F)c1cc(C(F)(F)F)c2ccc(Cl)nc2n1,-0.3,0.64
S=c1n(CN2CCCC2)nc2sc3ccccc3n12,-0.6,nt
COC(=O)c1cccc([N+](=O)[O-])c1C(=O)OC,nt,-0.48
CCOc1ccc(/C=C2\SC(=O)N(CCNC(=O)c3c(CC)noc3C)C2=O)cc1OC,1.6,nt
CCC1Oc2ccccc2N(Cc2ccccc2Cl)C1=O (configuration not stated),-1.5,0.38
COc1ccccc1CNC(=O)CCC(=O)Nc1nc(-c2cc3ccccc3oc2=O)cs1,nt,9.1
O=c1/c(=C/c2ccco2)sc2nc3ccccc3n12,0,0.2
C=CCn1c(C(C)NC(C)=O)nc2ccccc21 (configuration not stated),0.6,-0.23
O/N=C1\CCCc2nn(-c3ccc(Cl)c(Cl)c3)nc21,-0.7,-0.15
Cc1ccc(S(=O)(=O)NCCc2ccccc2)c2nsnc12,nt,2
COc1ccc(CSc2nnc(CSc3cccs3)n2C)cc1,-0.1,0.43
Cc1c(C(=O)N2CCC(C(N)=O)(N3CCCCC3)CC2)sc2ncnc(N3CCOCC3)c12,nt,-0.25
CCC(Sc1ncc(S(=O)(=O)c2ccc(C)c(C)c2)c(=O)[nH]1)C(=O)Nc1ccc(OC)cc1 (configuration not stated),0.8,0.83
CC(C)(C)OC(=O)N1Cc2ccccc2CC1C(=O)N1CCN(C/C=C/c2ccccc2)CC1 (configuration not stated),nt,0.23
CCN(CC)C(=O)c1cccc(Cl)c1,-0.8,0.38
COc1ccc(S(N)(=O)=O)cc1C(=O)N1CCCC1,0.95,nt
Cc1ccc(NC(=O)N2Cc3ccccc3CC2C(=O)NC(C)(C)C)cc1 (configuration not stated),nt,-0.19
O=C(Nc1ccccc1)c1ccc2c3c(onc13)-c1ccccc1C2=O,0.65,-0.18
c1ccc(CCCNCc2nnc(-c3ccccc3)o2)cc1,0.05,0.18
CCOP(=O)(OCC)C(Nc1cccc([N+](=O)[O-])c1)c1ccc(N(C)C)cc1 (configuration not stated),nt,-0.46
O=C(O)C1CCC(C(=O)O)CC1 (configuration not stated),nt,0.055
Cc1ccccc1CS(=O)(=O)c1c[nH]c2ccccc12,1.2,-0.41
CCCC(=O)c1ccc(O)cc1,-0.65,0.28
CCOC(=O)CCSc1ccccn1,-1.4,0.25
Cc1cccc(N2CC(O)(c3ccccc3)[N+]3=C2SCCC3)c1 (configuration not stated),nt,0.5
Cc1cc(/C=N/N2CCOCC2)c(C)n1-c1cccc(S(=O)(=O)N2CCOCC2)c1,-1.1,nt
O=[N+]([O-])c1cc(Cl)c(-n2cccc2)cc1N1CCCCC1,nt,-0.51
Cc1cc(C)c(C#N)c(SCc2[nH]nc3c2C(c2ccccc2)C(C#N)=C(N)O3)n1 (configuration not stated),nt,0.31
COC(=O)c1ccc(N2CCN(C)CC2)c(NC(=O)C(C)(C)Oc2ccc(Cl)cc2)c1,-0.25,0.035
N#CC1(P(=S)(c2ccccc2)c2ccccc2)CCCC1,-0.2,-0.23
CCC1(C)NC(=O)N(/N=C/c2c(F)c(F)c(F)c(F)c2F)C1=O (configuration not stated),0.4,nt
O=C(CCCc1ccccc1)OCn1nnc2ccccc2c1=O,-0.4,-0.78
CCOC(=O)c1ccc(NC(=O)C2CC(=O)N(C)C(=Nc3ccc(C)c(Cl)c3)S2)cc1 (configuration not stated),nt,0.095
CCCCn1c(CNC(=O)OC(C)(C)C)n[nH]c1=S,nt,0.46
Cc1noc(C)c1COC(=O)c1ccc2c(c1)S(=O)(=O)N=C1CCCCCN12,0.35,nt
O=[N+]([O-])c1cc(C(F)(F)F)cc([N+](=O)[O-])c1Sc1nc2ccccc2[nH]1,nt,-1.5
CSc1cccc(NC(=S)NN(C)C)c1,0.15,0.16
CN(C)CCNc1ccc(Cl)nn1,1.8,nt
O=C(Nc1ccc(F)cc1F)Nc1noc2c1COc1ccccc1-2,1.5,6.1
CC(C)N(Cc1ccccc1)C(=O)CSc1nnc(-c2ccco2)n1-c1ccccc1,-0.4,nt
CNC(=O)c1cc2c(=O)n3cc(C)ccc3nc2nc1NCC1CCCO1 (configuration not stated),-0.25,nt
CCOC(=O)C1(O)c2ccccc2NC(=O)N1C (configuration not stated),0.35,-0.64
CC(C)NC(=O)COc1ccccc1C#N,-0.75,nt
CC(C)N(Cc1ccccc1)CC(O)COc1ccc(S(=O)(=O)N2CCOCC2)cc1Cl (configuration not stated),1.6,nt
COC(=O)C1CNc2ccccc2C1=O (configuration not stated),-0.6,0.19
Cn1nc(C(=O)NCCN(Cc2ccco2)C2CCCC2)c2c1-c1ccccc1OC2,-0.15,0.11
CS(=O)(=O)c1nnnn1-c1ccc2c(c1)OCO2,-0.15,-0.065
Cc1ccc2nc(COC(=O)C3=COCCO3)cc(=O)n2c1,0.85,nt
S=c1nc(-c2cccs2)[nH][nH]1,-0.25,nt
CC(=O)N=c1scc(C)n1C(C)(C)C,0.45,nt
COc1cc2cc(=O)[nH]c(C)c2cc1OC,0.3,-0.2
CCCNC(=O)OCN1C(=O)c2ccc(N)cc2C1=O,-0.75,-0.88
O=C(N/N=C/c1cc(F)cc(F)c1)c1ccccc1Oc1ccccc1,nt,0.01
CC(=O)N1CCN(c2ccccc2N)CC1,-0.5,nt

# Among those listed so far, 4 contain a COOH group:
SMILES,AID504770,Ba CapD inh
O=C(O)CCc1nc(-c2ccccc2)c(-c2ccccc2)o1,1.6,-0.14
O=C(O)CCOc1cccc(Br)c1,-0.55,0.68
CSCCC(C(=O)O)N1C(=O)c2ccccc2C1=O (configuration not stated),0.25,nt
O=C(O)C1CCC(C(=O)O)CC1 (configuration not stated),nt,0.055

# An excerpt of the results above, for reference:
SMILES,AID504770,Ba CapD inh
Cc1noc(C)c1COC(=O)c1ccc2c(c1)S(=O)(=O)N=C1CCCCCN12,0.35,nt
O=[N+]([O-])c1cc(C(F)(F)F)cc([N+](=O)[O-])c1Sc1nc2ccccc2[nH]1,nt,-1.5

# The results go on.
SMILES,AID504770,Ba CapD inh
Cc1ccc(-c2nnc(-c3ccncc3)o2)c(C)c1,-0.15,1.9
CCSc1nc(N(C)C)nc(N2CCOCC2)n1,-0.2,nt
Cc1ccc(C(=O)COC(=O)CC2Oc3ccccc3NC2=O)c(C)c1 (configuration not stated),-0.1,nt
O=C(Nc1ccccc1)c1cc2ccccc2c(=O)o1,-0.05,-0.37
NS(=O)(=O)c1ccc(CNC(=O)OC/C=C/COCc2ccccc2)cc1,nt,-0.75
CCn1c(C)cc2c(c1=O)C(c1cccc(OC)c1)C(C#N)=C(N)O2 (configuration not stated),-0.95,nt
CCSC1=C(C#N)C(=O)NC(C)S1 (configuration not stated),1.4,-3.1
COc1ccccc1NC(=O)CSc1nnc2c3c4c(sc3nc(SC)n12)CN(C)CC4,0.25,1.3
Cc1sc(N)nc1C12CC3CC(CC(C3)C1)C2,1.1,0.3
COc1ccc(CCNS(=O)(=O)c2cc(C(=O)Nc3ccc(Br)cc3)ccc2F)cc1OC,nt,-0.28
CCOC(=O)C1=C(C)NC2=C(C(=O)c3ccccc32)C1c1ccc(O)cc1 (configuration not stated),nt,-0.33
Cc1nc(SCC(=O)C(C)(C)C)[nH]c(=O)c1CCC(C)C,nt,-0.64
COc1ccc(C2=NN(C(C)=O)C(c3cc4ccc(C)cc4nc3Cl)C2)cc1OC (configuration not stated),nt,0.62
Cc1ccc(CSc2nnc([C@@H](N)C(C)C)o2)cc1,-0.2,nt
CC(NC1=NCCN1)C(=O)O (configuration not stated),0.35,nt
CC(Sc1nncs1)C(=O)NCc1ccc2c(c1)OCO2 (configuration not stated),-0.4,nt
Nc1cccc2c1C(=O)N(C(=O)c1cccc(S(=O)(=O)N3CCOCC3)c1)C2=O,-0.65,nt
O=C(O)C(=O)/C=C(\O)c1ccccc1,1.1,-2.2
Cc1cc(=O)n(C(C)C(=O)N2CCN(c3ccccc3)CC2)c2c1c(C)nn2-c1ccccc1 (configuration not stated),1.8,-0.45
Cc1ccccc1NC(=O)C(NC1CCCCC1)C(C)C (configuration not stated),-0.05,nt
Cc1[nH]c(=O)n(C(C)(C)C)c(=O)c1C,-0.9,0.28
CC(C)(C)n1ncc2c(=O)n(Cc3cccc4ccccc34)cnc21,-0.2,-0.07
O=C(NC1CC1)c1n[nH]c(=O)c2ccccc12,-0.65,0.19
O=S(=O)(c1ccccc1)N1CCC2(CC1)OCCO2,-0.95,1.1

# Bioassay records from PubChem BioAssay.
